# TAR Tat displ – TAR RNA-Tat peptide displacers, HIV-1, primary screen, biochemical, FRET, FAM/TAMRA-labeled Tat. hit rate 0.6% among 100,000. HIV-1 TAR RNA, Tat peptide displacement FRET; hits give high values. z-score (concentration not given with the values);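 further: score is relative to mean and SD of negative controls; some compounds called inactive have numbers as strong as hits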
# CDC25B CDK2 inh – primary biochemical HTRF screen for blockers of M-phase inducer phosphatase 2 binding to CDK2/cyclin A; HTRF CDC25B-CDK2/CyclinA binding, anti-His/anti-Flag; hits give high values; z-score (no concentration beside the values); AID 1259370, 2018; hit rate 0.72% among 94,000;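 further: score is relative to mean and SD of negative controls; strong numbers were not always called active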
# An asterisk follows results filed as active; . = no result given.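 How the source made its calls: active means z-score from 3 up in half or more of its runs; inactive means the rest.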 Rows are unselected; 0.87% or so of the library scored in one or more.
# Order of results – TAR Tat displ | CDC25B CDK2 inh
> COc1cccc(/C=N/NS(=O)(=O)c2ccc(Cl)cc2)c1O
  . | -3.5
> Cc1cc(C)c(NC(=O)CN(C2=NC3CS(=O)(=O)CC3S2)c2ccc(F)cc2)c(C)c1 (configuration not stated)
  0.95 | -0.24
> Clc1ccc2nc(-c3cccnc3)c(NC3CCCCC3)n2c1
  1.2 | -1
> O=C(CCc1nc2sc3c(c2c(=O)[nH]1)CCCCC3)Nc1cccc(F)c1
  2.1 | .
> COc1ccccc1C1/C(=C(\O)c2ccc(Cl)cc2)C(=O)C(=O)N1CCCn1ccnc1 (configuration not stated)
  1.3 | -2
> CC1=C(C(=O)OCC2CCCO2)C(c2cccc(C)c2)C2=C(CC(C)(C)CC2=O)N1 (configuration not stated)
  -0.78 | -0.93
> O=C(NCCc1cnc[nH]1)c1ccc(Cn2c(=O)c3cccn3c3cccnc32)cc1
  -0.2 | .
> O=C(C1CC1)N1CCc2cc(Br)cc(S(=O)(=O)NC3CCCCCC3)c21
  . | -1.1
> Cc1ccc(N(C)c2c(-c3ccccc3)c(=O)c2=O)cc1
  2.6 | .
> COC(=O)c1sccc1NC(=O)c1cc2c(=O)oc3ccc(C)cc3c2s1
  -0.22 | -0.56
> Cn1ncc(Br)c1NC(=O)CN1CCOCC1
  . | 0.4
> O=c1nc(-c2ccc(Cl)cc2)c2ccccc2[nH]1
  -0.57 | -0.52
> O=C(Nc1nc2cc(NS(=O)(=O)c3ccc(F)cc3)ccc2s1)C1CCCCC1
  0.64 | .
> COc1cccc(C2N(Cc3ccccc3)CCN2Cc2ccccc2)c1O
  -0.16 | -0.3
> O=C(CN1C(=O)CCc2cc(Br)ccc21)NCCc1nc2ccccc2[nH]1
  1.4 | .
> Cc1ccc(N2C(=O)[C@@H]3CSC(c4ccc(F)cc4)N3C2=O)cc1 (some centres not stated)
  1.9 | -1.6
> Cc1ccc(Cl)cc1Nc1nc2ccccc2n2c(C)nnc12
  0.05 | -0.16
> CC(C)NC(=O)C1=Cc2cc(Cl)ccc2OC=C1
  0.58 | -0.27
> Cn1c(SCC(=O)Nc2cccc(F)c2)nnc1-c1cc2ccccc2o1
  -0.07 | .
> COc1cc(OC)cc(-n2nnc(-c3nc(-c4ccc(Cl)cc4)no3)c2N)c1
  -0.4 | .
> O=C1OC(c2ccccc2)=N/C1=C\c1ccco1
  . | -0.77
> O=C(Nc1ccc(S(=O)(=O)NC2CCCC2)cc1)N1CCCC1
  0.35 | .
> O=C(Nc1cnn(Cc2ccccc2)c1)c1cc2n(n1)C(C(F)(F)F)CC(c1ccco1)N2 (configuration not stated)
  1 | 0.26
> CC(=O)Oc1ccc(C2C(C#N)=C(C)NC3=C2C(=O)CCC3)cc1 (configuration not stated)
  1.3 | -1.6
> CCOc1ccc(-n2c(-c3ccc4c(c3)OCCO4)c[n+]3c2CCCCC3)cc1
  1.1 | -0.41
> O=C(CSc1nc2ccsc2c(=O)n1Cc1ccco1)NCc1ccco1
  . | -1.3
> CCSC1=C(C#N)C(=O)NC(c2ccc(OC)c(OC)c2)S1 (configuration not stated)
  -1.1 | 1.4
> O=C(Nc1nccs1)C1COc2ccccc2O1 (configuration not stated)
  1.6 | 0.43
> Cc1ccc(-c2n[nH]c3c2C(c2ccc(C)cc2)NC3=O)cc1 (configuration not stated)
  -0.16 | .
> O=C(CSc1nccn(-c2ccc(Cl)cc2)c1=O)Nc1ccccc1
  0.67 | .
> Cc1ccc2nc3c(cc(C#N)c(=O)n3-c3nnc(SCc4ccccc4F)s3)c(=O)n2c1
  1.2 | -30
> NC(=O)C1(N2CCCCC2)CCN(C(=O)Nc2ccc(F)cc2F)CC1
  0.23 | 0.27
> CCSc1nc2c(c(=O)[nH]1)C(c1ccc(O)c(O)c1)CC(=O)N2 (configuration not stated)
  22* | 14*
> CN1C(=O)c2ccccc2Sc2ccc(NC(=O)N3CCN(c4ccccn4)CC3)cc21
  0.04 | 0.26
> CSc1nc(COc2ccccc2Cl)nc(-c2cccs2)c1C#N
  . | -1.4
> O=C(NC1Cc2ccccc2C1)C1CCN(C(=O)OCc2ccccc2)CC1
  . | -1.8
> CCOc1ccc2ncc(S(=O)(=O)c3ccc(C)c(C)c3)c(N3CCOCC3)c2c1
  -0.67 | 0.85
> CC=C1[C@H]2C=C(C)C[C@]1(N)c1ccc(=O)[nH]c1C2
  1.3 | .
> O=c1c2oc3ccc(Cl)cc3c2nc2n1CCS2
  . | -0.41
> CC1CCN(C(=O)Cn2ncn3nc(-c4cccs4)cc3c2=O)CC1
  -1.3 | -7.6
> COc1ccccc1NC(=O)c1cnc2sccn2c1=O
  1.1 | -1.5
> COc1ccc(OC)c(NC(=O)C2CCC(CNc3c(N4CCOCC4)c(=O)c3=O)CC2)c1 (configuration not stated)
  2.5 | -3.5
> CCOc1ccc2nc(NC(=O)Nc3cccs3)sc2c1
  0 | -2.4
> O=C(Nc1ccc2c(c1)C(=O)OC2)Nc1ccccc1Cl
  . | -1.4
> CCOC(=O)c1ccc([N+](=O)[O-])o1
  1.3 | -2.3
> CCN1CCC2(CC1)OC(=O)C(C)=C2C(=O)Nc1ccc2c(c1)OCCO2
  0.34 | .
> COc1ccc(CCn2c(=O)c(C#N)cc3c(=O)n4cccc(C)c4nc32)cc1OC
  1.2 | -2.2
> Cc1cc(C)cc(S(=O)(=O)c2cn(C)c3cc(N4CCCCC4)c(F)cc3c2=O)c1
  0.48 | .
> CN(C)c1ccc(/C=N/O)c(F)c1C#N
  . | -1.2
> CCCC12CN3CC(CCC)(CN(C1)C3c1cccc(C)c1)C2=O (configuration not stated)
  . | -0.12
> Fc1ccc(C2=Nc3ccc(F)cc3NC(c3ccccc3)=N2)cc1
  -0.89 | -1.1
> Fc1cc(Br)c(-n2cccc2)c(Br)c1
  . | -2.4
> O=C(Nc1noc2ccccc12)c1cccs1
  -0.2 | 0.05
> CN1CCN(c2cc3c(cc2F)c(=O)c(C(=O)O)cn3CCF)CC1
  . | 0.19
> COC(=O)c1ccc(CN2CCOCC2)o1
  -0.4 | -1.1
> CCOC(=O)c1csc(NC(=O)Nc2ccc(F)c(Cl)c2)n1
  1.8 | -1.5
> CN1CCN(C(=O)Cn2ncc3c([nH]c4ccccc43)c2=O)CC1
  0.68 | .
> O=C(C1CCC(CNc2c(N3CCCCC3)c(=O)c2=O)CC1)N1CCN(c2ccccc2)CC1 (configuration not stated)
  -1.2 | -2.1
> Cc1nc2ccc(C(=O)O)cc2nc1C
  2.3 | .
> CCCCCn1c(NC2CCCCC2)nc2c1c(=O)[nH]c(=O)n2C
  0.5 | 0.02

# The list continues.
# Order of results – TAR Tat displ | CDC25B CDK2 inh
> Cc1ccc2c(C)nc(Nc3nc4c(c(=O)[nH]3)CCC4)nc2c1
  . | 10*
> CCN(CC)S(=O)(=O)c1ccc2oc(C(=O)NC3CCCC(C)C3C)c(C)c2c1 (configuration not stated)
  . | 0
> Cc1ccc(O)c(C2=NN3C(C2)c2cc(Br)ccc2OC3c2cccnc2)c1 (configuration not stated)
  0.85 | 0.23
> CCc1nc2ccccc2n2cc3c(=O)n(C)c(=O)n(C)c3c12
  2.1 | 0.96
> COc1cccc(NS(=O)(=O)c2ccc(-c3ccc(=O)[nH]n3)s2)c1
  1.1 | .
> Cc1nn(-c2nncc(-c3ccc(F)cc3)n2)c2c1C(c1cc(F)cc(F)c1)CC(=O)N2 (configuration not stated)
  2.7 | -0.47
> Cc1ccc(CNC(=O)c2cc3n(n2)CC(C)(C(=O)NCCC(C)C)N(C)C3=O)o1 (configuration not stated)
  -0.32 | .
> c1ccc(C2=Nn3c(nnc3-c3cccs3)SC2)cc1
  -1.5 | -0.57
> CCOC(=O)N1CCN(C(=O)c2cc3c(C)nc4ccccc4c3o2)CC1
  0.59 | -0.69
> OC(CNCCNc1ncccc1C(F)(F)F)Cn1ccc2ccccc21 (configuration not stated)
  . | -0.96
> COc1ccccc1OC(=O)c1sc2ccccc2c1Cl
  . | -0.59
> O=C(CCSc1nnnn1-c1ccccc1)Nc1ccc2c(c1)OCCO2
  0.57 | 0.89
> CCOCCCNc1cc(N(C)CCO)c2noc3c2c1C(=O)c1ccccc1-3
  0.65 | -0.03
> CCn1c2c(c(=O)[nH]c1=O)C(c1cc(Br)ccc1OC)C1=C(N2)c2ccccc2C1=O (configuration not stated)
  -1.2 | -0.94
> O=C(Nc1cccnc1)c1nc(-n2cnnc2)ccc1Br
  1.6 | .
> Cc1cccc(NC(=O)CCc2c(C)nc3nc(NCc4cccs4)[nH]n3c2=O)n1
  -0.55 | -0.92
> N#C/C(=C\NC1CCN(Cc2ccccc2)CC1)S(=O)(=O)c1ccccn1
  . | -0.1
> NNC(=O)CC12CC3CC(CC(C3)C1)C2
  . | -2.5
> c1ccc(CN2CCN(c3nc4ccccc4[nH]3)CC2)cc1
  0.43 | -0.09
> O=S1(=O)NC(=NCCCO)c2ccccc21
  . | -0.51
> O=C(O)CCN1C(=O)c2ccc3c4c(ccc(c24)C1=O)C(=O)N(CCC(=O)O)C3=O
  . | -0.56
> Cc1ccc(-c2nnc3sc(COc4ccccc4)nn23)cc1
  2.4 | -1.3
> O=C(NC1CCCCC1)N(Cc1ccccc1)Cc1ccco1
  1.3 | -0.07
> O=C(Nc1ccc2c(c1)OCCO2)C(=O)c1cn(CC(=O)N2CCOCC2)c2ccccc12
  2.1 | .
> O=S1(=O)C[C@H](NCc2ccncc2)[C@@H](S(=O)(=O)c2ccc(Cl)cc2)C1
  2.8 | -1.4
> COc1ccc(-n2nc(C(=O)N3CCCC3)c3c4ccccc4n(C)c3c2=O)cc1Cl
  . | -1.4
> O=C1CSC(=O)N1Cc1ccc(CN2C(=O)CSC2=O)cc1
  4.1 | -0.92
> COc1cc(NS(=O)(=O)c2ccc(NC(=O)c3ccco3)cc2)nc(OC)n1
  . | -0.02
> CCCCCCCCCCCCCCC[C@@H](O)[C@H](CO)NC(C)=O
  0 | .
> O=C(NCCN1CCCC1)c1ccc(N2CCOc3ccc(Cl)cc32)s1
  0.39 | .

# Part of the list above, with each value named.
smiles: COc1cc(NS(=O)(=O)c2ccc(NC(=O)c3ccco3)cc2)nc(OC)n1
- TAR Tat displ = .
- CDC25B CDK2 inh = -0.02

smiles: CCCCCCCCCCCCCCC[C@@H](O)[C@H](CO)NC(C)=O
- TAR Tat displ = 0
- CDC25B CDK2 inh = .

# New compounds follow:
# Order of results – TAR Tat displ | CDC25B CDK2 inh
> O=C(CCCSc1nc(-c2ccco2)cc(C(F)(F)F)n1)NCc1ccco1
  -0.66 | -0.66
> O=C(CSc1nccn1Cc1ccc(Cl)cc1)Nc1nccs1
  -5.8 | .
> Cc1csc(NC(=O)Cc2noc3ccccc23)n1
  -0.11 | -0.33
> CC1CCCN(c2nc(-c3ccccc3F)no2)C1 (configuration not stated)
  1.4 | .
> CCN(CC)c1ccc(CN(C(=O)c2cc(=O)c3c(C)cc(C)cc3o2)C2CCS(=O)(=O)C2)cc1 (configuration not stated)
  0.11 | 0.57
> CCOc1ccc(N2CC(C(N)=O)CC2=O)cc1 (configuration not stated)
  -0.19 | -0.81
> N/C(=N/OC(=O)Nc1ccc(Cl)cc1)c1csc([N+](=O)[O-])c1
  . | -1.2
> CCOC(=O)c1noc2ncnc(NCCN3CCCCC3)c12
  1.2 | .
> Cc1cccc(C)c1Nc1c(-c2cccs2)nc2cnccn12
  2 | 0.23
> CCC(C(=O)Nc1ccccc1F)n1nc(C)c2sc3ccccc3c2c1=O (configuration not stated)
  0.98 | -2.2
> Cc1ccc(-c2noc(CN(C(=O)C(C)(C)C)C(C)C)n2)cc1
  1.1 | -1.2
> CCC1SC2=NC(C)=C(C(=O)OC)C(c3ccc(OC)cc3)N2C1=O (configuration not stated)
  -1.4 | -0.88
> CCN(CC)c1nc2c(s1)C(=O)NCC(C)(C)C2
  . | -0.63
> Cc1cc(=O)[nH]c(N2C(=O)c3ccccc3C2=O)n1
  . | 0.1
> CC1Cc2cc(S(=O)(=O)Nc3cccc(Br)c3)ccc2N1C(=O)C1CCC1 (configuration not stated)
  0.36 | .
> Cc1cc(C)n(-c2ccc(N3CC(C)OC(C)C3)nn2)n1 (configuration not stated)
  . | -2.5
> COc1ccc2nc(NC(=O)CSc3nnnn3-c3ccccc3)sc2c1
  . | -1.3
> Nc1c(C(=O)Nc2cc(F)ccc2F)nnn1-c1ccccc1
  1.1 | -1.3
> c1ccc2cc(OCc3nc4ccccc4[nH]3)ccc2c1
  -0.65 | -3.8
> Cc1ccc(S(=O)(=O)Nc2ccc(Oc3c(C)nc4nc[nH]n4c3=O)cc2)cc1
  0.83 | .
> CC(C)CCn1c(SCC(=O)Nc2ccc(Br)cc2)nc2nccnc2c1=O
  1.7 | -1.9
> COc1ccc(NC2CC(=O)N(c3cccc4ccccc34)C2=O)cc1 (configuration not stated)
  -1.6 | 2.9
> Cc1cc(N(C)CCO)n2nc(Cc3ccccc3)nc2n1
  0.12 | 0.24
> O=C1CC(C(=O)Nc2nncs2)C(c2ccccc2)O1 (configuration not stated)
  . | 0.19
> CCC(=O)N1c2ccc(S(=O)(=O)N3CCN(CC)CC3)cc2CC1C (configuration not stated)
  1.4 | .
> Cc1ccc(NC(=O)CSc2nc(-c3cccs3)nc3cc(=O)[nH]n23)cc1C
  1.6 | .
> CCc1cc2c3c([nH]c2cc1S(=O)(=O)NCCC1=CCCCC1)CCCC3=O
  0.94 | .
> CS(=O)(=O)CC(=O)Nc1ccc2nc3n(c(=O)c2c1)CCCCC3
  . | -1.7
> COCCSc1ncc(CO)n1Cc1ccccc1
  0.88 | .

# Full records, quoted from the list. Order of values: TAR Tat displ	CDC25B CDK2 inh
# CC(C)CCn1c(SCC(=O)Nc2ccc(Br)cc2)nc2nccnc2c1=O as listed: 1.7	-1.9
# Cc1cc(N(C)CCO)n2nc(Cc3ccccc3)nc2n1 as listed: 0.12	0.24
# CS(=O)(=O)CC(=O)Nc1ccc2nc3n(c(=O)c2c1)CCCCC3 as listed: .	-1.7
# CCC(=O)N1c2ccc(S(=O)(=O)N3CCN(CC)CC3)cc2CC1C (configuration not stated) as listed: 1.4	.
# COc1ccc2nc(NC(=O)CSc3nnnn3-c3ccccc3)sc2c1 as listed: .	-1.3

# Source: PubChem BioAssay (Center for Chemical Genomics, University of Michigan)
